Source: PubChem
ClpP mod – qHTS Assay for Activators of ClpP. actives 1.9% (n = 340,000). Potency, µM (doses to about 57.5 µM), for inactives: top-dose activity change, negative = active. purified B. subtilis ClpP, FRET peptide cleavage, 20 min. AID 651965, 2013. ATP-dependent Clp protease proteolytic subunit (Bacillus subtilis (strain 168)), P80244; active = well fitted falling curve with a large enough effect; inconclusive = small, poorly fitted or top-dose-only effect; inactive = no such curve, though single readings can be large or run the other way; also: potency is read from the fitted curve at half-maximal effect; the source files actives as falling curves though it sought activators and does not explain the sign; nearly all actives have a fitted effect of over 65% in size; many hits overshoot -100%
Target sequence (P80244 whole entry, looked up): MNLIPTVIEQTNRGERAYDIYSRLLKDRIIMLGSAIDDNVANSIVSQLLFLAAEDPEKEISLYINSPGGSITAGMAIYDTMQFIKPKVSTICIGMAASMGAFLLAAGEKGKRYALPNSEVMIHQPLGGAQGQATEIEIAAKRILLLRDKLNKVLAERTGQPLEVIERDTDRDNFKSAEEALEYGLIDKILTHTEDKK
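Buffer: 100 mM Tris/HCl pH8, 100 mM KCl, 0.05% low protease BSA, 2.5% glycerol, 0.01% Tween-20. ClpP 10 microg/mL final; 20 min RT; delta FRET normalized to ADEP and DMSO controls.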
CtBP-E1A inh – blocks the CtBP interaction with E1A; AlphaScreen GST-E1A/His-CtBP binding, 1536-well; stronger effect = lower value; control for the full effect not named in the record; activity change, % (no concentration beside the values); actives 0.49% (n = 340,000); in the data active means activity change below about -65%; inconclusive means about -30% to -65%; inactive means above about -30%; also: % is scaled to controls: 0 for no effect and ±100 for the full control effect; compound concentration not given in the record
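In 5 uL wells, 23 nL compound meets equimolar GST-E1A and His-CtBP (5X stock 125 nM each) for 2 h, 37 °C. Beads (5X, 50 ug/mL) then 1 h, 37 °C, dark.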
gsp antag – antagonizes gsp, the McCune-Albright syndrome mutation; gsp-mutant cells, cAMP HTRF, 30 min; control for the full effect not named in the record; Potency, µM (doses to about 76.9 µM), inactives show at the top dose activity change, negative = inhibition, most hits filed as inhibitors; actives 0.4% (n = 340,000); AID 624288; active = falling curve of any shape with a large fitted effect; inconclusive = falling curve, mostly with a smaller effect; inactive = flat or rising curve; cell line not stated here;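 also: intracellular cAMP measured with PDE inhibitor Ro 20-1724 present during compound exposure; potency is read from the fitted curve at half-maximal effect; % is scaled to controls: 0 for no effect and ±100 for the full control effect; nearly all actives have a fitted effect of over 65% in size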
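HTRF cAMP measurement after 30 min RT detection following 30 min, 37C compound treatment alongside […] (added as 300 uM solution) in G418-selected cells seeded at 2000/well and grown 16–24 h.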
TRPV1 potentiator – human TRPV1 potentiation; TRPV1-expressing cells, Fluo-8 calcium influx, capsaicin EC20 potentiation; host cell line not named in the record; control for the full effect not named in the record; potentiation, % at 8.33 µM; actives 0.02% (n = 320,000); active means potentiation above 80%; inconclusive means 30% to 80%; inactive means below 30%; also: 0% is about no effect
Target sequence (Q8NER1 whole entry, looked up): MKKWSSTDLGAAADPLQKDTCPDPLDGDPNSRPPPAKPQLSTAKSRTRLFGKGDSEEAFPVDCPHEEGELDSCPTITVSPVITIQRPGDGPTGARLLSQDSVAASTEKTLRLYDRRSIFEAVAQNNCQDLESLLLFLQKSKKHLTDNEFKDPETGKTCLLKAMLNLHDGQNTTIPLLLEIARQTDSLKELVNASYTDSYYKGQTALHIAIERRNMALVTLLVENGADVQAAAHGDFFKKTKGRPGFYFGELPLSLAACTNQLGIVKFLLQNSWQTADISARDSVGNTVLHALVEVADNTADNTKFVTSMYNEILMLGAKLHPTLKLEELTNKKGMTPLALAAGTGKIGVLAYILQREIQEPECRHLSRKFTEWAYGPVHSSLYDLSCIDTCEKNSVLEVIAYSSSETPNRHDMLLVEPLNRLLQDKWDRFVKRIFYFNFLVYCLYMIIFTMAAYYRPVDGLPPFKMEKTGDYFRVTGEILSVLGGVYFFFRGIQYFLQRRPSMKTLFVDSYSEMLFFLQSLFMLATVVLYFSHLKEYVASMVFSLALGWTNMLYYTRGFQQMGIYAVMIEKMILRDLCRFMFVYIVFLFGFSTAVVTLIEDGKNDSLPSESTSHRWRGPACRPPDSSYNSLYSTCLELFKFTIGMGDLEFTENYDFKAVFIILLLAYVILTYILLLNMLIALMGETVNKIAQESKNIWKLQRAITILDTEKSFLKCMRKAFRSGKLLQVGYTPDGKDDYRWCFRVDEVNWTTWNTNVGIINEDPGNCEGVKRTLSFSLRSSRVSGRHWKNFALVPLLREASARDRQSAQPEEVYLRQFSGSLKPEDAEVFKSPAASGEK
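Cells expressing TRPV1 were dye-loaded with Fluo-8 and read kinetically: 10 s baseline, 3 min after compound (agonist portion), then 2 min after EC20 capsaicin (allosteric enhancer portion). Calcium-bound dye fluorescence at 480/520 nm.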
gsp ag – activates gsp, the McCune-Albright syndrome mutation; actives 0.13% (n = 340,000); gsp mutant cells, cAMP HTRF, 30 min; control for the full effect not named in the record; Potency, µM (top dose mostly 76.9 µM), inactives show at the top dose activation (cAMP increase), hits mostly activators; active = well fitted activation curve with a large enough effect; inconclusive = small, poorly fitted or top-dose-only effect, or another doubt; inactive = no such curve, though single readings can be large or run the other way; cell line not stated here;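 also: phosphodiesterase inhibitor Ro 20-1724 added with compounds to block cAMP breakdown; potency is read from the fitted curve at half-maximal effect; nearly all actives have a fitted effect of over 60% in size; about a fifth of the inactives were tested at one dose only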
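Cells stably selected in G418 were plated at 2000/well, grown 16-24 hr, then given compounds in DMSO with the PDE inhibitor […] (300 uM solution added) for 30 min at 37C; cAMP was read by HTRF.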
Sfp inh – inhibitors of Bacillus subtilis Sfp phosphopantetheinyl transferase | Biochemical Sfp PPTase activity, qHTS | AID 1490 | Potency, µM, for the others: max response, negative = inhibition, hits mostly inhibitors | actives 3.5% (n = 310,000) | Q9F4F7; active = well fitted inhibition curve with a large enough effect; inconclusive = small, poorly fitted or top-dose-only effect, or another doubt; inactive = no such curve, though single readings can be large or run the other way;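 also: the enzyme is Sfp with the accession as filed and its product quenches rhodamine fluorescence; potency is read from the fitted curve at half-maximal effect; 0% = enzyme reaction without inhibitor and -100% = no enzyme wells; top concentration of the series not given in the record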
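Sfp 15 nM + cpd, 15 min RT; start w/ rhodamine-CoA 5 uM, BHQ-2-YbbR 12.5 uM (final); 50 mM Hepes pH 7.6, 10 mM MgCl2, 0.01% NP-40, 0.01% BSA; read 525/598 nm at 0 and 30 min.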
Menin-MLL FL inh – displaces fluorescein MLL peptide from human menin | Fluorescence polarization, fluorescein-MLL peptide displacement from menin | FP activity change, % at 61.4 µM | 290,000 tested, under 10 active; inconclusive = falling polarisation curve, or a change in total fluorescence; inactive = total fluorescence flat and polarisation flat or rising; no compound was filed as active; the % refers to the polarisation; negative = inhibition;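 also: % of control where 0% means no effect; inhibitors lower the polarisation; unlabelled MLL peptide was the positive control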
* marks the source's active call; other numbers are inactive results; ? = inconclusive; nt = not tested or not shown; & = joins results of further samples; [ ] = remark or other dose.

SMILES | ClpP mod | CtBP-E1A inh | gsp antag | TRPV1 potentiator | gsp ag | Sfp inh | Menin-MLL FL inh
O=C(O)c1cccc(NC(=O)c2ccc(COc3ccc(Cl)cc3)cc2)c1 | -0.4% | -5 | -21% | 22 | -30%[inhibitor] | 10% | 0.5
CCCN(C(=O)c1cnccn1)c1c(N)n(Cc2ccccc2)c(=O)[nH]c1=O | -19% | 9 | 5% | -21 | 0%[15.4 µM] | nt | nt
O=C(CSc1ccccc1)N1CCCC(N2CCN(c3ccccc3)CC2)C1 (stereo not given) | -1.8% | 0 | -7% | -13 | -19% | 11% | nt
CCCCn1nnnc1SCC(=O)c1ccccc1F | -0.4% | 0 | 0% | -21 | -46%[inhibitor] | 2% | 3.1
CC(C)C(NC(=O)CN(c1ccc2c(c1)OCCO2)S(=O)(=O)c1ccccc1)C(C)C | nt | 0 | -10% | nt | -7%[15.4 µM] | nt | nt
CCN(CCO)C1CC(=O)N(c2ccccc2C)C1=O (stereo not given) | -1.2% | 8 | -10% | 1 | -5% | -72% | 1.0
CN(C)S(=O)(=O)c1cccc(-c2nnc(SCc3ccc4c(c3)OCCO4)o2)c1 | -10% | -4 | -8% | -2 | -6% | 1% | 5.0
Cc1cc(=O)oc2c(C(=O)/C=C\c3cccs3)c(O)ccc12 | -3.2% | 6 | -1% | 3 | -6% | ? | -1.8
CCc1ccc(NC(=O)CSc2nc3ccccc3c(=O)n2CCCC(=O)NCCCN2CCOCC2)cc1 | nt | -13 | -6% | -4 | 4%[15.4 µM] | -18% | 1.0
COC(=O)NNC1=CC(=O)CC(C)(C)C1 | 4.7% | nt | 10% | 11 | -10% | -4% | 2.2
Cc1cccc(C)c1OCc1nnc(SCC(=O)Nc2ccc(N3CCOCC3)cc2)o1 | nt | 28 | -19% | -11 | 9%[15.4 µM] | 15% | 1.7
COc1ccc(-c2cc(C(=O)N(C)CC(=O)Nc3cccc(F)c3)c3ccccc3n2)cc1 | 6.3µM* | 9 | ? | -3 | -8% | nt | nt
COc1ccccc1NC(=O)Nc1ccc(-n2ccc(C(F)(F)F)n2)cc1 | nt | -9 | -6% | nt | -46%[inhibitor] | 8% | 3.4
CCCNC(=O)C(Cc1cccc(Cl)c1)NC(=O)c1ccccc1 (stereo not given) | -3.3% | -10 | 10% | -13 | -1% | nt | nt
N#CC1=CN(Cc2ccccc2)C=C(/C=N/Nc2ccccc2)C1 | -2.2% | -3 | -7% | 17 | 14%[15.4 µM] | -21% | ?
Cc1cccc(NC(=O)CN2CCc3cc4c(cc3C2C)OCCCO4)c1 (stereo not given) | -0.9% | -5 | -21% | -11 | 15% | -10% | 5.4
CCC(=O)Nc1ccc(S(=O)(=O)N2CCN(c3ccc(F)cc3)CC2)cc1 | -2.0% | 3 | -2% | -44 | -31%[inhibitor] | 14% | -0.7
CCOC(=O)N1C2=NC(C(=O)OC)=C(C(=O)OC)[C@@H]3Nc4ccccc4[C@]23C[C@H]1C(=O)OC | 1.9% | nt | -1% | 10 | -6% | 9%&14% | -6.3[11.7 µM]
Cc1c(C2(c3c(C)n(C)n(-c4ccccc4)c3=O)C(=O)Nc3ccc(F)cc32)c(=O)n(-c2ccccc2)n1C | 3.5% | 22 | 5% | 25 | -29% | 3% | 4.7
CCCN(CC1CC1)C(=O)CCc1nnc(CCc2c[nH]c3ccccc23)o1 | -4.2% | -23 | 4% | 11 | -13% | 3% | 7.7
Oc1ccccc1N1CCN(Cc2ncc(-c3ccccc3)o2)CC1 | 0.3% | 0 | -4% | -2 | 9%[15.4 µM] | -7% | 2.3
Cc1cc(F)ccc1Oc1cc(NN2CCCCC2)c([N+](=O)[O-])cc1[N+](=O)[O-] | 3.5% | -17 | -19% | 24 | 21% | 1% | -3.5
CN(C)c1cccc(C(=O)N2CCC(n3nccc3NC(=O)C3CCOC3)CC2)c1 (stereo not given) | -0.4% | 4 | 10% | 22 | -15% | 21% | nt
Cc1cc(C)c(S(=O)(=O)N2CCCCC2)c(C)c1N(C)S(=O)(=O)c1ccc(Cl)cc1 | -0.2% | 3 | 1% | ? | -9%[15.4 µM] | 10% | 0.1
Cc1c(Br)c([N+](=O)[O-])nn1C(C)C(=O)Nc1ccc2c(c1)OCO2 (stereo not given) | -2.4% | -10 | -10% | 1 | -29% | 2% | -2.7

Individual results from the results shown.
O=C(O)c1cccc(NC(=O)c2ccc(COc3ccc(Cl)cc3)cc2)c1 – ClpP mod = -0.4%
COc1ccccc1NC(=O)Nc1ccc(-n2ccc(C(F)(F)F)n2)cc1 – CtBP-E1A inh = -9

Remaining list, next part.
SMILES | ClpP mod | CtBP-E1A inh | gsp antag | TRPV1 potentiator | gsp ag | Sfp inh | Menin-MLL FL inh
CCCC(=O)N1CCCC(C(=O)c2ccc(OC)c(OC)c2)C1 (stereo not given) | nt | 4 | 2% | ? | -21% | 25% | -2.2
CCOC(=O)c1c(C)n(C)c2ccc(OC(C)C(=O)OC)cc12 (stereo not given) | -2.3% | 0 | -11% | -19 | -3% | 10% | -1.0
CC(OC(=O)c1ccc2c(=O)n3c(nc2c1)CCC3)C(=O)Nc1ccc(C(N)=O)cc1 (stereo not given) | -8.7% | -4 | 13% | 19 | 1% | nt | nt
COc1ccc(-c2nnc(-c3cccs3)o2)cc1OC | 32µM* | -12 | -10% | -9 | ? | 13% | 1.1
CC(CCc1ccccc1)NC(=O)c1ccc(C(=O)NC(C)CCc2ccccc2)cc1 (stereo not given) | -0.2% | 2 | 1% | 1 | 3% | 2% | 1.1
CCCCC(=O)Nc1ccc2c(c1)oc1ccccc12 | -1.1% | 5 | -13% | 4 | -26% | 16% | 6.0
CCc1ccc(S(=O)(=O)/N=C2\C=C(NS(=O)(=O)c3ccccc3)C(=O)c3ccccc32)cc1 | 3.8% | ? | -13% | -11 | 2% | -6% | -10
COC(=O)c1ccc(/C(O)=C(\C#N)c2nc3ccccc3s2)cc1 | -0.5% | -21 | 18µM* | 14 | 11% | 7% | 4.5
CCC1(c2ccc(F)cc2)NC(=O)N(CC(=O)N(CCC#N)c2ccccc2)C1=O (stereo not given) | nt | -7 | 5% | 27 | -1%[15.4 µM] | 0% | -8.7
COc1ccc(C(=O)COC(=O)c2ccn(C)n2)cc1 | nt | 1 | 9% | 3 | -6%[15.4 µM] | 14% | nt
Cc1ccc(C)c(NC(=S)N/N=C2/CCCCc3ccccc32)c1 | -1.4% | -14 | -12% | 5 | -11% | -2% | ?
O=C(Nc1ccc2c(c1)OCO2)C1CCN(C(=O)c2ccc(Br)cc2)CC1 | nt | 1 | ? | -11 | 11%[15.4 µM] | 5% | 1.4
COc1cccc(C2c3[nH]c4ccccc4c3C[C@H]3C(=O)N(c4ccccc4C(=O)NCCCN4CCOCC4)C(=O)N23)c1 (stereo not given in full) | -2.7% | 0 | -4% | 2 | nt | 3% | -4.7
CSc1sc(C(=O)NNC(C)=O)c2c1C1(CCC2)SCCS1 | -2.3% | nt | ? | 19 | -10% | 19% | 0.9
COc1ccc(OC)c(C2CC(=O)NC(SC)=C2C#N)c1 (stereo not given) | -0.1% | 3 | 5% | nt | -27% | 0% | 0.7
COc1ccc(N(CC(=O)NCc2ccccc2C)S(=O)(=O)c2ccccc2[N+](=O)[O-])c(OC)c1 | nt | -17 | -14% | 3 | -70%[inhibitor] | 13% | -1.2
Cc1cc(C)c(S(=O)(=O)Cc2ccccc2)c(=O)[nH]1 | nt | -11 | 9% | 3 | -32%[inhibitor] | 4% | 2.5
CCN(Cc1ccncc1)C(=O)c1cc(COc2ccc(F)cc2F)on1 | -0.9% | -6 | 6% | -2 | -4% | -4% | nt
COc1ccc(-n2cnnc2SCC(=O)NC2CCS(=O)(=O)C2)cc1 (stereo not given) | -2.7% | -1 | -8% | 1 | -2% | 20% | -8.2
CCCC1CC(C)(/C(C)=N\NC(N)=S)OC1=O (stereo not given) | 1.9% | 6 | 15% | -4 | ? | -26% | -0.9
Cc1ccc(S(=O)(=O)NCCCCCC(=O)Nc2ccccc2C)cc1 | 2.2% | -1 | 9% | -12 | -22% | -3% | 1.0
Cc1cc(N)n2nc(C)c(-c3ccccc3)c2n1 | -10% | -13 | 10% | 6 | -24% | 10% | 0.0
CN(CC(=O)Nc1cccc(F)c1)C(=O)CCC1CCCCC1 | -2.0% | 1 | -4% | -14 | -5% | nt | nt
O=C(CCC(=O)N1CCc2ccccc2C1)N1CCN(S(=O)(=O)c2ccccc2)CC1 | 0.0% | 6 | -5% | 2 | -4% | 9% | -1.1
O=c1c2ccccc2n(CC(O)CN2CCOCC2)c2ccccc12 (stereo not given) | -1.9% | -13 | -7% | 8 | -2%[15.4 µM] | 5% | -3.6
COc1cc(NC(=O)c2ccccc2)cc(OC)c1 | -0.2% | 5 | 4% | 10 | -3% | -27% | 3.7
CCc1ccc(NC(=O)COC(=O)c2nc3nc(C)cc(C)n3n2)cc1 | -0.9% | -7 | 3% | 10 | 2% | nt | nt
CNC(=S)NNC(=O)c1c(C)nc2cc(C)ccn12 | nt | -4 | 1% | -13 | 1% | ? | 3.8
O=C1OC(c2ccccc2)Cc2cc(C(=O)N3CCN(c4ccc(F)cc4)CC3)ccc21 (stereo not given) | 1.8% | -2 | -4% | 0 | -34%[inhibitor] | nt | nt
COc1cccc2cc(C(=O)OCC(=O)N3CC(C)OC(C)C3)c(=O)oc12 (stereo not given) | nt | 2 | 2% | nt | 1% | nt | nt
Cc1ccc(NC(=O)Cn2nnc(C(=O)NCCc3ccccc3)c2N)c(C)c1 | -4.1% | -12 | 6% | -1 | 5% | -6% | -0.1
O=C(Nc1ccccc1C(=O)O)C1=NN=CC1 | nt | ? | 9% | 4 | 15% | -7% | 1.4
COCCN(C(=O)CSc1nc2ccccc2c(=O)n1CC(C)C)c1c(N)n(Cc2ccccc2)c(=O)[nH]c1=O | nt | -27 | -29% | 24 | -2%[15.4 µM] | -13% | 0.9
